HCMV NEC inh: inhibitors of HCMV UL50-UL53 nuclear egress complex interaction. HTRF UL50-UL53 interaction, normalized percent inhibition. inhibition, % (no concentration beside the values). actives 0.15% (n = 190,000). AID 1918969;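 active = both replicates at 50% or more, plus weaker picks with an unusually low signal ratio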;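 note: stock transfer was 100 nL into about 20 µL; 0% = negative control wells and 100% = wells with untagged competitor protein; inactives centre near -12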
GIV-Gai inh: inhibitors of GIV GBA-motif binding to rat Galpha-i3 | actives 0.42% (n = 210,000) | P08753 | percent of control (FP), % (concentration not given with the values) | Galpha-i3/FITC-GIV peptide fluorescence polarization, 90 min; stronger effect = lower value; scaled: aluminum fluoride 0%, vehicle 100%;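 active = replicate mean at 85% of control or lower, very high polarization wells dropped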;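 note: wells of about 15 µL received 100 nL stock; the first replicate is given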
Target sequence (P08753 whole entry, looked up): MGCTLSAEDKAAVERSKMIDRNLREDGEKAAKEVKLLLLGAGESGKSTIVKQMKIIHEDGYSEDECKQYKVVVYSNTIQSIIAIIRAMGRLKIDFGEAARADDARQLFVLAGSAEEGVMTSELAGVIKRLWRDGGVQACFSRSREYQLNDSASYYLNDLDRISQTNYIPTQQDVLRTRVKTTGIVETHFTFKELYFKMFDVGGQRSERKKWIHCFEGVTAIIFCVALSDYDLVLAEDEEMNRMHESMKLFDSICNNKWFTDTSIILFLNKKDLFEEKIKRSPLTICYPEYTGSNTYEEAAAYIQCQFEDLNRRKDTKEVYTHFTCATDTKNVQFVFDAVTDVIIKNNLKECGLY
Sa growth inh: blocks Staphylococcus aureus growth | S. aureus RN4220 growth, OD600, 20 h, 42 °C; stronger effect = lower value | relative growth, % (no concentration beside the values) | actives 0.53% (n = 170,000) | AID 720641;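 active = growth at 42 °C up to 50% and 20 or more points under that at 30 °C, or under 10% at both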;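 note: 300 nL library stock went into each well; scaled to the means of positive and negative controls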
Sa growth inh second temp: further read-out of Sa growth inh, marked with its call; relative growth, %; measured here: growth at 30 °C;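 optical density after 20 h as mean of two plates; 100% = untreated growth and lower means inhibition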
Active calls of the source: *; / = not tested or not shown; & = joins results of further samples.

Values in the order: Sa growth inh	GIV-Gai inh	Sa growth inh second temp	HCMV NEC inh
COc1ccc(CNC(=O)c2cccc(S(=O)(=O)N3CCN(C)CC3)c2)cc1
 : 86	/	99	1
CC1(C)CC2(C)OC(=O)C(c3ccccc3)N2C(=S)N1 (stereo unspecified)
 : 92	98	88	/
O=C(c1cccn1-c1nnc(N2CCCC2)s1)N1CCN(c2ccccc2)CC1
 : 71	94	83	/
CCOc1ccc(-c2noc(CSc3nnc(Cc4ccccc4)n3-c3cccc(C)c3)n2)cc1
 : 93	101	86	-36
O=C(NCc1ccc2c(c1)CCN2C(=O)c1ccc(F)cc1)c1c(F)cccc1F
 : 147	103	84	/
CC1CCN(c2nc(Cl)nc3ccccc23)CC1
 : /	103	/	-25
COc1ccc(Nc2nc(C(=O)NCc3ccc(C)cc3)cc3occc23)cc1
 : /	110	/	-11
O=c1ccn(C2OC(CO)C(O)C2O)c(=S)[nH]1 (stereo unspecified)
 : 83	103	85	2
O=C(O)c1ccc(CN=C2NS(=O)(=O)c3ccccc32)cc1
 : 100	/	90	-11
CSc1nnc(C(C)(C)C)c(=O)n1/N=C/c1ccccc1
 : 93	93	104	1
O=c1oc2ccccc2c(Nc2ccccc2)c1CN1CCCCC1
 : 80	96	95	/
N#Cc1ccsc1NC(=O)CSc1ncnc2sc3c(c12)CCCC3
 : /	110	/	6
Cc1cc(Br)ccc1OCCCN1C(=O)CCN1c1ccccc1
 : 63	103	54	6
Cn1cnc2ccccc21
 : 94	/	91	-9
Cc1ccc(CCNC(=O)CCSCc2ccc(Cl)cc2)cc1
 : 109	105	93	/
Cc1ccc(-c2noc(CCC(=O)NC3CCCC3)n2)c(=O)n1C(C)C
 : /	107	/	2
O=C(COC(=O)c1ccc2c(c1)OCCO2)Nc1cccc(Cl)c1
 : 113	/	86	-15
COC(=O)c1ccc(NC(=O)CC2C(=O)N(c3ccc(F)cc3)C(=O)N2C2CCCC2)cc1 (stereo unspecified)
 : 78	101	77	/
Cc1ccc(CNS(=O)(=O)c2c(C)nc3sc(C)cn3c2=O)cc1
 : 94	107	76	/
Cc1cccc2sc(N(CCCN(C)C)C(=O)c3ccc(Cl)s3)nc12
 : 117	105	70	/
CCCSc1oc(-c2ccco2)nc1S(=O)(=O)c1ccc(Br)cc1
 : 88	103	87	-6
CC(C)(C)c1nn2cnnc2n(NC(=O)Nc2cccc(Cl)c2)c1=O
 : 100	/	91	-6
CCOc1ccc(-n2c(N)c3c(N)nc(N(CC)CC)c(C#N)c3c(C#N)c2=S)cc1
 : 78	/	93	-6
CCN1C(=O)c2ccccc2Sc2ccc(NC(=O)N3CCCCC3)cc21
 : 110	100	77	/
COc1ccc(CNc2nc3nc(C)c(Cl)c(C)n3n2)cc1OC
 : 91	96	79	-24
O=C(O)CCC(=O)Nc1ccc(CN2CCCC2)cc1
 : 96	/	96	-4
CN(CCCNC(=O)c1c2c(nc3ccccc13)C(=O)N(C1CCCCC1)C2)C1CCCCC1
 : /	97	/	-55
O=C(O)C1CC2C=CC1C21CC1 (stereo unspecified)
 : 116	98	87	4
Cc1ccc(O)c(N=Nc2ccccc2)n1
 : /	100	/	-16&-107
CCOC(=O)c1cccc(C(=O)Nc2nc3ccc(OC)cc3s2)n1
 : 87	101	87	/

Looked up one by one from above (7):
Values in the order: Sa growth inh	GIV-Gai inh	Sa growth inh second temp	HCMV NEC inh
CC(C)(C)c1nn2cnnc2n(NC(=O)Nc2cccc(Cl)c2)c1=O
 : 100	/	91	-6
CN(CCCNC(=O)c1c2c(nc3ccccc13)C(=O)N(C1CCCCC1)C2)C1CCCCC1
 : /	97	/	-55
CCN1C(=O)c2ccccc2Sc2ccc(NC(=O)N3CCCCC3)cc21
 : 110	100	77	/
Cc1ccc(O)c(N=Nc2ccccc2)n1
 : /	100	/	-16&-107
COc1ccc(CNc2nc3nc(C)c(Cl)c(C)n3n2)cc1OC
 : 91	96	79	-24
O=C(O)C1CC2C=CC1C21CC1 (stereo unspecified)
 : 116	98	87	4
O=C(O)CCC(=O)Nc1ccc(CN2CCCC2)cc1
 : 96	/	96	-4

Continued.
Values in the order: Sa growth inh	GIV-Gai inh	Sa growth inh second temp	HCMV NEC inh
O=C(CCCSc1nc(-c2ccco2)cc(C(F)(F)F)n1)NC1CCCCC1
 : 93	111	87	-10
O=S1(=O)c2cccc3cccc(c23)N1Cc1ccccc1F
 : 127	101	95	-32
CCOc1ccc(NC(=O)CSc2nc3ccc(N4C(=O)c5ccccc5C4=O)cc3s2)cc1
 : 95	/	94	3
CCC(=O)N1CCc2cc(Br)cc(S(=O)(=O)N3CCCC(C(=O)NCc4ccc(F)cc4)C3)c21 (stereo unspecified)
 : 85	103	99	-6
CCOc1ccc(C2C(=O)N(C3CCCCCC3)CC(=O)N2CCC2=CCCCC2)cc1OC (stereo unspecified)
 : 112	105	73	/
COc1ccc(C(=O)NCc2csc3ccccc23)cc1
 : 80	100	87	-14
CCCn1c(CCC(=O)Nc2ccccc2C)nc2cc(S(=O)(=O)N3CCOCC3)ccc21
 : 89	/	106	-3
O=C1/C(=C/c2ccccc2)CCCc2ccccc21
 : 87	102	89	-40
CC1CCCN(c2cc3c(cc2F)c(=O)c(S(=O)(=O)c2cccc(Cl)c2)cn3Cc2ccccc2)C1 (stereo unspecified)
 : 105	105	94	/
O=c1c2ccccc2c2ccccc2c(=O)n1-c1ccc2c(c1)OCO2
 : 80	98	87	-5
c1ccc(Oc2ccc(NC3=NCCC3)cc2)cc1
 : 97	97	88	2
O=C(Nc1ccc(O)c(-c2nc3ccccc3s2)c1)c1cc(Br)ccc1Cl
 : /	98	/	-28
Cc1ccc2c(c1)C(c1ccc(F)cc1)N(C(=O)COc1ccccc1)CC(=O)N2 (stereo unspecified)
 : 105	108	80	/
COc1ccc(-n2nc3ccc(NC(=O)c4ccc(-c5cc(Cl)ccc5Cl)o4)cc3n2)cc1
 : 99	109	87	-38
O=C(OCCN1CCOCC1)C(c1ccccc1)c1ccccc1
 : 118	/	92	-2
CC(C)(C)C(=O)CN1C(=O)c2ccccc2C1=O
 : 129	107	89	-3
COc1ccc(-n2cc(-c3ccccc3)c3c(N4CCCC(C)C4)ncnc32)cc1 (stereo unspecified)
 : 107	106	88	/
O=C(Nc1cc(-c2ccc(Cl)cc2)nn1-c1ccc(F)cc1)C1CCC1
 : 106	106	91	-16
Cn1c(=O)c(-c2noc(CCC(=O)Nc3ccccc3F)n2)nn(-c2ccccc2)c1=O
 : /	104	/	-106
Cc1ccc(Nc2nc(-c3ccccc3)nc3ccccc23)cc1
 : 55	104	57	/
NC(=O)C1CCN(C(=O)CSc2nccc(-c3ccccc3)n2)CC1
 : 106	107	83	-1
CCN1CCC(N(Cc2ccc3c(c2)OCO3)C(=O)Nc2ccc(Br)c(C)c2)CC1
 : 128	96	96	/
O=C1NCCCC1C1=NC(CO)(CO)CO1 (stereo unspecified)
 : 104	96	91	-6
CC(C)N(C(=O)c1ccc2snnc2c1)C(C)C
 : 110	101	87	1
Cc1cc(N2CCOCC2)cc(C)[n+]1[O-]
 : 99	103	75	-9
Cc1ccccc1NC(=O)c1ccc2c(c1)nnn2C
 : /	101	/	11
O=C(OCCn1ncc2ccccc2c1=O)c1ccc2c(c1)CCO2
 : 123	97	77	-25
CCCCn1c2c(c(=O)n(C)c1=O)C(c1ccc(OC)cc1)N1CCCCCC1=N2 (stereo unspecified)
 : 92	/	88	-27
O=C(O)c1ccccc1C(=O)NCc1ccccc1Cl
 : 106	103	85	/
N#C/C(C(N)=O)=C1\Oc2c(cc(O)cc2-c2ccccc2)S1
 : 105	98	83	/
CCOC(=O)c1ccccc1NC(=O)CSc1cn(CC(=O)N2CCCCC2)c2ccccc12
 : 120	103	94	/
COC(=O)c1c2c(n3ccc(C)cc13)C(=O)c1ccccc1C2=O
 : 7.5*	132	7.9*	/
COc1ccc(NC(=O)Cn2cnc3c(oc4ccccc43)c2=O)cc1OC
 : 98	110	91	/
CCc1nc(-c2cc(S(N)(=O)=O)ccc2OC)no1
 : /	106	/	-24
CCOC(=O)c1cnn2c(NC(=O)c3c(Br)cnn3C)c(C#N)nnc12
 : 109	106	98	-100
CNC(=O)/C=C/c1ccc(S(=O)(=O)N2CCOCC2)cc1
 : 98	/	94	-76
Cc1cccc(Cn2c(=O)oc3ccc(C)cc32)c1
 : 97	105	88	-26
O=C(O)C1CCC1C(=O)N1CCN(c2ccc(C(F)(F)F)cn2)CC1 (stereo unspecified)
 : 72	94	101	-68
CCn1c(=O)c(-c2noc(CCC(=O)Nc3ccccc3OC)n2)nn(-c2ccccc2)c1=O
 : /	101	/	-60
O=C(COc1coc(CN2CCN(Cc3ccccc3)CC2)cc1=O)N1CCCCC1
 : 102	99	101	-2
Cc1cccc(N2CCN(C(=O)CCCn3c(=O)[nH]c4ccc(Br)cc4c3=O)CC2)c1C
 : /	102	/	-24
CCCNC(=O)Cn1c(=O)n(C)c2ccccc21
 : 101	101	82	/
CCOC(=O)c1cnc2cc(C3CC3)[nH]n2c1=O
 : 99	99	85	-14
Cc1cccc(CSCc2ccc(C(=O)NC3CCCC(C)C3C)o2)c1 (stereo unspecified)
 : 96	101	89	/
Cc1ccccc1CCNC(=O)C1CCN(S(=O)(=O)c2ccc3c(ccn3C)c2)CC1
 : 82	102	89	/
N/N=C/c1ccc(S(=O)(=O)c2ccc(Cl)cc2)cc1
 : 101	103	95	/
CC1=C(c2ccc(Cl)cc2)S(=O)(=O)N=C1N1CCC(C(=O)NCCc2ccco2)CC1
 : 87	103	81	/
O=C(NC(=S)N1CCCC(C(F)(F)F)C1)c1ccc(F)cc1 (stereo unspecified)
 : 107	106	39	-15
COc1ccc(OCC(O)Cn2c(N(C)C)nc3c2c(=O)n(C)c(=O)n3C)cc1 (stereo unspecified)
 : 98	103	84	-4
COc1ccccc1NC(=O)N(Cc1ccco1)C1CCN(C(C)=O)CC1
 : 96	99	96	/

(further entries)
Values in the order: Sa growth inh	GIV-Gai inh	Sa growth inh second temp	HCMV NEC inh
Cn1nc(N2CCN(S(=O)(=O)c3ccccc3)CC2)c(=O)n(C)c1=O
 : 98	/	88	-16
CCn1c(=O)c(-c2noc(CCC(=O)Nc3ccc(C)c(F)c3)n2)nn(-c2ccccc2)c1=O
 : /	101	/	-12
O=C(NC(Oc1ccccc1)(C(F)(F)F)C(F)(F)F)Oc1ccccc1
 : 96	103	89	-25
CCOC(=O)C1(C#N)C(C#N)(C(=O)OCC)C1(C#N)C(=O)OCC (stereo unspecified)
 : 90	/	88	-6
Nc1nc(Nc2ccccc2)n(-c2ccccc2)c(=O)n1
 : 113	115	101	22
O=C(NC1CC(=O)N(c2cccc(F)c2)C1)c1ccc(Br)o1 (stereo unspecified)
 : 98	99	80	/
COc1ccccc1/C=C1\SC(=O)N(CCC(=O)Nc2ccc(S(N)(=O)=O)cc2)C1=O
 : /	101	/	-37
CCOC(=O)C1=C(C)OC(N)=C(C#N)C1c1ccncc1 (stereo unspecified)
 : /	102	/	-17
C=CCn1c(CNC(=O)c2cccs2)nnc1SCC(=O)Nc1ccc(C(=O)O)cc1
 : 100	97	108	7
CCn1cc(CCC(=O)NC(C)c2ccccc2)c2ccccc21 (stereo unspecified)
 : 113	109	92	/
COc1cc(Cl)c(C)cc1NC(=O)CC1CCCC1
 : 106	/	92	-12
Cc1ccc(-n2c(=O)/c(=C\c3ccc4c(c3)OCO4)s/c2=C(/C#N)C(=O)NCCN2CCOCC2)c(C)c1
 : 99	/	107	-6
O=C(Nc1ccccc1)N(Cc1ccccc1)c1cccc2ccccc12
 : 118	100	104	28
Nc1nc(N2CCCCC2)ncc1S(=O)(=O)c1ccc(Cl)cc1
 : 90	103	84	-9
Cc1noc2c1C(c1ccc(Br)cc1)C1=C(CC(C)(C)CC1=O)N2 (stereo unspecified)
 : /	105	/	-14
CCc1cccc(NC(=O)CN(C)S(=O)(=O)c2ccc3[nH]c4c(c3c2)CCCC4)c1
 : 100	108	100	/
COc1ccc(CCNC(=O)c2ccc3c(c2)N(Cc2ccccc2C)C(=O)c2ccccc2S3)cc1OC
 : 142	108	111	/
CC(C)Nc1nc(-c2ccccc2)nc(-n2ccnc2)n1
 : 88	/	75	3
COc1cc(C(CC(=O)Nc2ccc(F)cc2F)N2Cc3ccccc3C2=O)cc(OC)c1OC (stereo unspecified)
 : 121	100	53	/
CCC(C)NC(=O)C1CCCN(c2nc(-c3ccc(OC)cc3)no2)C1 (stereo unspecified)
 : 93	100	81	/
c1ccc(COc2ccc(C3Oc4ccccc4C4CC(c5ccccc5)=NN43)cc2)cc1 (stereo unspecified)
 : /	100	/	-14
CCCn1c(SCC(=O)N2CCCc3ccccc32)nnc1C(C)C
 : 98	98	84	-18
CC(C(=O)NC1CCCC1)N(c1ccc(F)cc1)S(C)(=O)=O (stereo unspecified)
 : 103	103	72	-27
C=CCN1C(=O)Cc2c1nc(N)c1c(N)nc(N3CCN(C(=O)c4ccco4)CC3)c(C#N)c21
 : 67	/	95	-30
CN(C)N1C(=O)c2cccc3c(Br)ccc(c23)C1=O
 : 89	106	75	-138
O=C(CN1N=C(c2ccccc2F)c2cc(Cl)ccc2S1(=O)=O)NC1CCCC1
 : /	103	/	10
COc1cc2c(cc1OC)C(COc1ccc3c(C)cc(=O)oc3c1)N(C(=O)Cc1ccccc1)CC2 (stereo unspecified)
 : 108	105	102	-3
